A350 autofl: compound fluoresces in the Alexa 350 spectral region; Compound autofluorescence, 340/450 nm, Alexa 350 dye-equivalents; stronger effect = higher value; max dye-equivalent concentration, M; 59,000 tested, 11% active; in the data active means max dye-equivalent concentration above about 10 nM; inconclusive means mostly about 1.1 nM to 9.6 nM
Fluorescein autfl: compound fluoresces in the fluorescein spectral region; Compound autofluorescence, 480/540 nm, fluorescein-equivalent; stronger effect = higher value; max fluorescein-equivalent concentration, M; 59,000 tested, 0.91% active; AID 593; in the data active means max fluorescein-equivalent concentration above about 10 nM; inconclusive means between about 1.1 nM and that limit
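Normalized response (dye-equivalent concentration) derives from comparing each well's 540 nm emission, under 480 nm excitation, with plate-resident fluorescein standards. Compounds were held in 100 mM Tris, pH 8.0, for 15 min at room temperature.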
UbGFP stabilizer: proteasome inhibitors stabilizing ubiquitin-GFP reporter; 67,000 tested, under 10 active; Potency, µM (doses to about 45.9 µM), for the others: at the highest dose activation (GFP accumulation), most hits filed as activators; Ubiquitin-GFP reporter cells, proteasome inhibition, GFP fluorescence; response scale: untreated = 0%, 10 µM MG-132 = 100%; active means well fitted activation curve with a large enough effect, not every such curve was filed as active; inconclusive means small, poorly fitted or top-dose-only effect, or another doubt; inactive means no such curve, though single readings can be large or run the other way; further: potency means the concentration at half of the fitted maximal effect
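Proteasome block read as GFP accumulation: ubiquitin(G76V)-GFP U2OS cells exposed to compound (2.9 nM–46 uM) for 4 hr at 37 C. Normalization used untreated cells as 0% and 10 uM MG-132 as 100%; concentration-response curves fitted.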
Texas Red fluor: Texas Red region autofluorescence; 59,000 tested, 0.06% active; max dye-equivalent concentration, M; Compound fluorescence, Texas Red channel, 547/618 nm; stronger effect = higher value; in the data active means max dye-equivalent concentration above about 10 nM; inconclusive means between about 1.1 nM and that limit
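Spectral interference profiling: each compound concentration's relative fluorescence, read with a 547 nm excitation and 618 nm emission filter pair, was normalized to a per-plate Texas Red standard curve.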
Epigenetic mod: derepresses silenced GFP locus in mouse C127i cells | mouse C127i GFP locus derepression, cytometry, 30 h | Potency, µM (titrated, usually from 46.1 µM), without a hit: at the top dose GFP derepression (activation) | 68,000 tested, 0.09% active; further: % of control where 0% means no effect
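Locus derepression in mouse mammary C127i cells whose integrated CMV-GFP reporter is normally silent; GFP expression after 30 h compound treatment was quantified by counting fluorescent cells.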
4-MU autofl: compounds fluorescent in 4-MU spectral region; compound autofluorescence, 340/450 nm, 4-MU equivalents; stronger effect = higher value; max dye-equivalent concentration, M; 59,000 tested, 11% active; in the data active means max dye-equivalent concentration above about 10 nM; inconclusive means mostly about 1.1 nM to 9.6 nM
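Intrinsic fluorescence at 340/450 nm (ex/em) was read after 15 min at room temperature in pH 8.0, 100 mM Tris. Each compound concentration expressed as 4-MU-equivalent concentration from a six-point 4-MU standard series on each plate.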
ERK AVP inh: vasopressin-driven ERK pathway inhibition; HEK293-V1b, vasopressin-stimulated pERK AlphaScreen; Potency, µM (titrated, usually from 57.5 µM), for inactives: at the top dose activity, negative = inhibition, most hits filed as inhibitors; 72,000 tested, 0.99% active; AID 995; further: potency means the concentration at half of the fitted maximal effect; on the % scale 0 is the no-effect control and ±100 the full control effect; nearly all actives have a fitted effect of over 55% in size
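HEK293 cells stably expressing V1b receptor, seeded overnight in 1% FBS, were treated with compounds for 30 min at 37C, then stimulated 5 min with 25 nM vasopressin; phospho-ERK read by AlphaScreen SureFire after lysis.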
FLuc inh: inhibitors of firefly luciferase | P08659 | purified firefly luciferase, luminescence, 8 min | Potency, µM (doses to about 57.1 µM), for the others: at the top dose activity change, negative = inhibition, most hits filed as inhibitors | 72,000 tested, 2.2% active; further: potency means the concentration at half of the fitted maximal effect; on the % scale 0 is the no-effect control and ±100 the full control effect; nearly all actives have a fitted effect of over 40% in size
Target sequence (P08659 whole entry, looked up): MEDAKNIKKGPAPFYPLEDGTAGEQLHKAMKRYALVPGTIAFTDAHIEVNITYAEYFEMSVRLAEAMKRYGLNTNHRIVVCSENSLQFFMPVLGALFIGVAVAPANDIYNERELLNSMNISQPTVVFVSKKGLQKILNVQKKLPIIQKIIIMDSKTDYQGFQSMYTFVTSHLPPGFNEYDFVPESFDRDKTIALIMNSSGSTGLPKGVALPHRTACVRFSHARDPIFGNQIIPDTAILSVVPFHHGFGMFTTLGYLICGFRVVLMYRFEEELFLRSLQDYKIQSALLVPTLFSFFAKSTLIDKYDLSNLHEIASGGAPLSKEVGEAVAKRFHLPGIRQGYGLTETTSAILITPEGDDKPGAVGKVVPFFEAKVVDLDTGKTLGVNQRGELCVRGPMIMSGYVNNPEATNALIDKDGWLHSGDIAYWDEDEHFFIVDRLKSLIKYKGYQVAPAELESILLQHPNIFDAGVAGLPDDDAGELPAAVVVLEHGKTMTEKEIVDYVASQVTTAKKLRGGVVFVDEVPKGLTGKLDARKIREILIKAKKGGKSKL
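Compounds were tested as concentration series (qHTS) against purified P. pyralis luciferase with luciferin and 10 uM ATP in 50 mM imidazole pH 7.2, 50 mM KCl, 7 mM MgCl2, 0.01% Tween 20, 0.05% BSA. Luminescence was read after 8 min at ambient temperature.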
CRE Fsk mod: modulators of forskolin-stimulated CRE signaling in CHO cells; Potency, µM (series often up to 38.2 µM), for the others: top-dose activity change, negative = inhibition, usual class: activators; 71,000 tested, 2.5% active; CHO CRE-bla reporter (cAMP response element driving beta-lactamase), forskolin EC10, beta-lactamase ratio; active means well fitted activation curve with a large enough effect in the signal ratio, with a control signal flat, not every such curve was filed as active; inconclusive means small, poorly fitted or top-dose-only effect, or effect the other way, or a change in a side signal; the % refers to the signal ratio; further: potency means the concentration at half of the fitted maximal effect; % of control where 0% means no effect
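Cells were plated overnight at 37 °C, exposed to compound titrations plus EC10 NKH 477 for 3 h, then given CCF4 dye for 2 h at room temperature. Blue/green (460/530 nm) ratio was converted to %Activity and AC50 values calculated.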
HBB splice mod: hemoglobin beta splicing modulation. AID 925. 65,000 tested, 0.06% active. Potency, µM (highest dose often 46.1 µM), for inactives: at the highest dose activation, usual class: activators. HBB splicing reporter cell assay, activation; EGFP reporter with mutant IVS2-654 intron; response scale: normalised to 500 nM splice-correcting PNA; further: potency means the concentration at half of the fitted maximal effect; 0% is about no effect
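Compounds were applied for 2 days to HeLa EGFP-654 cells, 500/well in Optimem with 2% FCS. The reporter's EGFP is disrupted by mis-splicing of beta-globin intron IVS2-654. Readout: summed well GFP fluorescence from 488 nm laser scanning; reference was 500 nM antisense […] 654 PNA.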
* marks the source's active call; other numbers are inactive results; i = inactive; ? = inconclusive; · = not tested or not shown; [ ] = remark or other dose. Unless noted, the call rests on the fitted dose curve; in most records, active means well fitted curve in the direction sought with a large enough effect; inconclusive means small, poorly fitted or top-dose-only effect, or another doubt; inactive means no such curve, though single readings can be large; an effect the other way counts as inactive or inconclusive. These rows are one share of the data; rates above refer to the full screens.

A first look (six entries):
SMILES	A350 autofl	Fluorescein autfl	UbGFP stabilizer	Texas Red fluor	Epigenetic mod	4-MU autofl	ERK AVP inh	FLuc inh	CRE Fsk mod	HBB splice mod
O=C(CSc1ccc2nnc(-c3cccs3)n2n1)N1CCOCC1	·	·	-5%	·	·	·	·	0%	?	0.0%
COc1ccc(CCN2C(=O)c3[nH]nc(-c4ccccc4O)c3C2c2ccc(C)cc2)cc1OC (centres undefined)	1.4e-07M*	i	0%	i	2%	1.1e-07M*	?	0%	?	-1.0%[0.369 µM]
O=C(c1ccc(CSCc2ccccc2F)o1)N1CCN(c2ccc(N3CCOCC3)nn2)CC1	·	·	-5%	·	·	·	25µM*	-17%	?	-0.2%
CSc1ccc(-c2nnn(Cc3ccc(C)cc3)n2)cc1	·	·	0%	·	2%	·	94%[activator]	-26%	5%	2.4%
CCCN1c2cccc3cccc(c23)S1(=O)=O	1.4e-07M*	?	-2%	i	2%	1.1e-07M*	13%	-7%	-14%	-3.1%
CCN(CCCNC(=O)C1CCN(S(=O)(=O)c2cnc[nH]2)CC1)c1ccccc1	i	i	-7%	i	0%	i	10%	-4%	11%	-1.7%

The whole of this part (from the top)
SMILES	A350 autofl	Fluorescein autfl	UbGFP stabilizer	Texas Red fluor	Epigenetic mod	4-MU autofl	ERK AVP inh	FLuc inh	CRE Fsk mod	HBB splice mod
O=C(CSc1ccc2nnc(-c3cccs3)n2n1)N1CCOCC1	·	·	-5%	·	·	·	·	0%	?	0.0%
COc1ccc(CCN2C(=O)c3[nH]nc(-c4ccccc4O)c3C2c2ccc(C)cc2)cc1OC (centres undefined)	1.4e-07M*	i	0%	i	2%	1.1e-07M*	?	0%	?	-1.0%[0.369 µM]
O=C(c1ccc(CSCc2ccccc2F)o1)N1CCN(c2ccc(N3CCOCC3)nn2)CC1	·	·	-5%	·	·	·	25µM*	-17%	?	-0.2%
CSc1ccc(-c2nnn(Cc3ccc(C)cc3)n2)cc1	·	·	0%	·	2%	·	94%[activator]	-26%	5%	2.4%
CCCN1c2cccc3cccc(c23)S1(=O)=O	1.4e-07M*	?	-2%	i	2%	1.1e-07M*	13%	-7%	-14%	-3.1%
CCN(CCCNC(=O)C1CCN(S(=O)(=O)c2cnc[nH]2)CC1)c1ccccc1	i	i	-7%	i	0%	i	10%	-4%	11%	-1.7%
Cc1cccc(C(C)(C)C)c1OCCn1ccnc1	i	i	0%	i	6%	i	-12%	1%	-1%	-0.6%
c1ccc(-c2nc(NCc3ccco3)c3ccccc3n2)nc1	i	?	-1%	i	0%	i	-19%	-3%	?	-2.4%[57.5 µM]
CCOC(=O)N1CCN(C(=O)c2ccc3c(=O)n(CCOC)c(=O)[nH]c3c2)CC1	2.1e-08M*	i	3%	?	0%	2e-08M*	-4%	2%	-5%	-0.6%
N#CC1=C(N)Oc2n[nH]c(-c3ccccc3)c2C12C(=O)Nc1ccccc12 (centres undefined)	1.3e-07M*	i	5%	i	2%	1.6e-07M*	-4%	0%	-3%	·
Cc1cc(C)cc(N2C(=O)CSC2c2cccs2)c1 (centres undefined)	i	i	10%	?	5%	i	-11%	2%	-4%	-0.6%
COc1nc(OC)nc(N2CCC(C(=O)NC3CCCCCC3)CC2)n1	i	i	1%	i	0%	i	-7%	-2%	-6%	1.7%
CC(C)(C)C1CCc2onc(C(=O)N3CCOCC3)c2C1 (centres undefined)	i	i	-5%	i	7%	i	16%	-1%	?	-1.1%
CC(=O)Nc1ccc(NC(=O)CN(C)CCC#N)cc1	·	·	-15%	·	2%	·	-4%	0%	2%	-0.3%
O=c1c2ccccc2nc(-c2cccc(Cl)c2)n1O	i	i	-5%	i	0%	i	11%	3%	-4%	-1.7%
CC1CN(C2CC(C)(C)NC(C)(C)C2)CCC1=O (centres undefined)	·	·	-12%	·	-2%	·	-15%	1%	0%	4.6%
O=C(Nc1nc(-c2ccccn2)cs1)c1ccc(S(=O)(=O)N2CCCCC2)cc1	?	i	6%	i	-2%	?	25µM*	2%	18%	0.3%
COC(=O)CSc1ncc(C#N)c(N)n1	1.9e-08M*	i	-4%	i	-1%	2.3e-08M*	16%	-5%	-3%	·
Cc1ccnc(N2CCC(C(=O)NC3CCCCCC3)CC2)n1	i	?	2%	?	1%	i	0%	3%	-13%	0.2%
CN(CCc1ccc(Cl)c(Cl)c1)CCN1CCCCCC1	·	·	7%	·	0%	·	13%	-1%	-8%	·
COc1ccc(N(C)S(=O)(=O)c2cccc3cccnc23)c(OC)c1	i	i	?	i	4%	i	?	2%	?	-0.1%
COc1cccc(N2CCN(Cc3nc(N)nc(Nc4ccccc4)n3)CC2)c1	5.3e-06M*	i	-3%	i	-2%	4.2e-06M*	-23%	6%	-8%	-2.3%[57.5 µM]
Cc1ccc(S(=O)(=O)NCCNC(=O)C2CCCNC2=O)cc1 (centres undefined)	?	i	·	?	-2%	i	1%	1%	2%	2.6%[0.369 µM]
CCC1(c2ccccc2)NC(=O)N(CC(=O)Nc2cccc(C#N)c2)C1=O (centres undefined)	i	?	-3%	?	1%	i	2%	-5%	-7%	0.2%[57.5 µM]
COc1ccc(OCCCC(=O)Nc2ccc3c(c2)OCO3)cc1	·	·	-10%	·	0%	·	-18%	1%	-2%	-0.1%[9.22 µM]
CS(=O)(=O)N1CCCC(C(=O)NCc2ccccn2)C1 (centres undefined)	i	i	-13%	i	-1%	i	30%	1%	?	-0.8%
COCCn1c(=O)[nH]c2cc(C(=O)N3CCN(Cc4ccc5c(c4)OCO5)CC3)ccc2c1=O	?	i	1%	i	0%	?	11%	1%	-5%	0.5%
O=C(NCCCN1CCOCC1)c1ccc(CNS(=O)(=O)c2ccc(F)cc2)cc1	i	i	0%	i	4%	i	-13%	0%	3%	-3.5%[57.5 µM]
COc1ccc(OC)c(N2C(=O)CC(Cc3ccc(C)cc3)C2=O)c1 (centres undefined)	i	i	-4%	i	-2%	i	-15%	-2%	-3%	-0.1%
C=CCn1c(=O)[nH]c2cc(C(=O)N3CCN(c4cc(C)ccc4C)CC3)ccc2c1=O	i	i	6%	i	0%	i	13%	1%	?	-3.3%
c1ccc(-c2cn3nc(-c4ccccc4)sc3n2)cc1	·	·	24%	·	2%	·	23%	0.13µM*	1%	-1.0%[9.22 µM]
CCSCCOC(=O)C1=C(C)NC(=O)NC1c1cc(OC)ccc1OC (centres undefined)	·	·	3%	·	1%	·	-15%	-2%	6%	0.9%
CCOCCCNC(=O)C1CCCCN1S(=O)(=O)c1ccc(F)cc1 (centres undefined)	i	?	-3%	i	-4%	i	7%	1%	1%	-2.7%
Cc1ccc2c(c1)C(=O)[C@]1(O)CCN(c3ccccc3)C1=N2	·	·	·	·	·	·	5%	·	·	?
O=C(O)c1cc2nc(-c3ccccc3)cc(C(F)(F)F)n2n1	?	i	-8%	i	-2%	?	-14%	0%	-3%	·
Cc1ccc(-c2nc(C(=O)NC3CCCCCC3)no2)cc1	·	·	9%	·	-3%	·	-11%	-1%	9%	-0.7%
COc1ccccc1-c1n[nH]c(=S)o1	i	i	-1%	?	3%	i	?	2%	-12%	-2.0%
COc1ccc(-c2nc3c(n2O)CCC/C3=N\O)cc1	·	·	-9%[9.17 µM]	·	2%	·	-13%	-10%	14%[7.6 µM]	3.4%[0.0738 µM]
N#Cc1c(-c2ccc3c(c2)OCO3)csc1N	i	?	9%	i	1%	i	8%	-6%	2%	-0.3%
COc1ccccc1N1CCN(CC(=O)Nc2ccc(C)c(F)c2)CC1	i	?	-9%	i	0%	i	5%	2%	?	3.3%
CCOC(=O)C1C(=O)N(C(=O)c2ccc(OC)cc2)CC1c1ccccc1 (centres undefined)	·	·	18%	·	0%	·	26%	2%	-9%	-0.2%[9.22 µM]
C#CCOc1nc(OCC#C)nc(OCC#C)n1	·	·	-4%	·	-2%	·	?	-6%	22%	0.3%

Compound activity (PubChem BioAssay)
